# NPYLR7 ag = agonists of mosquito NPYLR7 receptor, primary screen, cell-based, Aedes aegypti, calcium fluorescence, mosquito biting behavior; Aedes aegypti neuropeptide Y-like receptor 7 (NPYLR7); HEK293T NPYLR7/Galpha15, GCaMP6s calcium fluorescence; activation, % at 10 µM; hit rate 0.15% among 270,000; in the data active = activation above about 40%;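 also: 0% = vehicle and 100% = reference agonist at the receptor; some compounds past the cut are filed as inactive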
# NPYLR7 ag max-min = further read-out of NPYLR7 ag, marked with its call; activation, %; measured here: Max-Min RFU normalised activation; some inactives read as strong as hits;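 span of the calcium signal over five minutes; 0% = vehicle and 100% = native peptide agonist; compound fluorescence can raise it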
# * = called active by the depositor; & = joins results of further samples.
SMILES,NPYLR7 ag,NPYLR7 ag max-min
O=C(NC1CCC(n2cnnc2)CC1)c1ccc(Cn2ccnc2)o1 (configuration not stated),-4,-5
O=C(Nc1nnc(-c2ccc(Br)cc2)s1)C1CCCN1C(=O)COc1ccc(Cl)cc1 (configuration not stated),2,12
CCN(CC)C(=O)Oc1ccc2c(ccn2Cc2cccc(C)c2)c1NC(=O)[C@H](C)OC(C)=O,2,3
C=CCNc1ccccc1C(=O)N1CCCC1c1nc(C(C)C)no1 (configuration not stated),2,-4
O=C(CC1CCCC1)N1CCN(C(=O)c2ccc[nH]c2=O)CC1,1,0
CN1CCCC2(CCN(C(=O)/C=C/c3cnn(C)c3)C2)C1=O (configuration not stated),7,-1
COc1cc(NC(=O)COC(=O)c2cc(-c3ccco3)nc3ccccc23)cc(OC)c1,-4,-4
COc1ccc(Nc2nc(N)c([N+](=O)[O-])c(NCC3CCCO3)n2)cc1 (configuration not stated),-2,0
Cc1noc(C)c1C(=O)NCCC12CC3CC(CC(C3)C1)C2,4,12
CC(c1ccccc1)n1c(C2CC(=O)N(C(C)(C)C)C2)nc2ccccc21 (configuration not stated),-3,-7
CC(C)c1ccccc1OC1CC2CCC(C1)N2C(=O)c1ccc(CSc2nc3cccc(Cl)c3o2)cc1 (configuration not stated),7,-3
Cc1cc(C(F)(F)F)nc(CCNS(=O)(=O)NCc2ccccc2)n1,-2,-2
Cc1c(NC(=O)[C@@H](C)NC(=O)OC(C)(C)C)cccc1OC(F)F,11,7
Cc1nn(C)c(C)c1NC(=O)c1cc(-c2ccc(Br)cc2)n[nH]1,5,5
O=C(NCCCn1nc(-c2ccccc2)ccc1=O)Nc1ccc(OC(F)(F)F)cc1,-2,-2
CCOc1ccc(NC(=O)N[C@@H](Cc2ccccc2)C(=O)N2CCC(C(=O)N3CCOCC3)CC2)cc1,3,1
CCC(C)(C)C1CCC(=NNc2nnc(C)c(=O)[nH]2)CC1 (configuration not stated),4,-5
Cn1cc(NC(=O)NCc2ccc(Cl)cc2)c2ccccc21,-4,-7
COc1ccc(C(=O)N2CCC3(CC2)C(=O)N(CC(=O)NCc2ccco2)CN3c2ccccc2)cc1,-5,-1
O=C(c1ccc(N2CCC(NCC3OCCc4ccccc43)CC2)cc1)N1CCc2ccccc2C1 (configuration not stated),24,7
CCOC(=O)C1(O)CCN(C(=O)Cc2cn(C)c3ccccc23)CC1,-1,-2
COc1ccccc1-c1cnn2c(C)c(C(=O)NC(C)c3cccc4ccccc34)cnc12 (configuration not stated),6,-9
CN(C)CCN(C)C(=O)c1cn(Cc2ccccc2F)nn1,-4,-8
Cc1noc(C)c1C1CCCN1C(=O)c1cc(-c2ccccc2O)n[nH]1 (configuration not stated),4,-1
COc1ccc(CC(=O)N2C[C@H]3[C@H](O)[C@@H]4C[C@H](c5ccc(F)cc5)[C@@H](O4)[C@H]3C2)cc1,4,9
SMILES,NPYLR7 ag,NPYLR7 ag max-min
Cn1ccc2c(-c3ncccc3C(=O)N3CCCCC3)ccnc21,8,-2
CC1CCN(C(=O)C(C2CCCC2)N2CCN(C(=O)c3cccc(Br)c3)CC2)CC1 (configuration not stated),9,10
O=C(Cn1ccnc1)N1CCCCCC1CC(O)c1ccccc1 (configuration not stated),6,4
Cc1ccc(-c2ccnc(NCCNC(=O)c3ccncc3)n2)c(C)n1,-8,-13
Cc1onc(-c2c(F)cccc2Cl)c1C(=O)N1CCN(CCCOC(c2ccc(Cl)cc2)c2ccc(Cl)cc2)CC1,24,14
Cc1ccc2oc(-c3ccc(C)c(NC(=O)c4ccc([N+](=O)[O-])cc4)c3)nc2c1,-4,-9
CCn1c(C2CCN(C(=O)Nc3ccc(OC)c(OC)c3)CC2)nn(C)c1=O,4,3
Clc1ccc(C2=Nc3nnnn3C(c3ccco3)C2)cc1 (configuration not stated),4,0
CNc1ncc(C(=O)NCc2ccc3[nH]c(-c4ccccc4F)c(C)c3c2)cn1,7,4
CCc1ccccc1NC(=O)Cc1csc(N2CCCC2=O)n1,9,7
CN(C)c1cc[n+](Cc2c(Cl)cccc2Cl)cc1,3,1
O=[N+]([O-])c1cc(S(=O)(=O)CS(=O)(=O)c2ccc(Cl)c([N+](=O)[O-])c2)ccc1Cl,-2,-5
Cc1ccccc1Oc1cc(N2CCN(C(=O)c3cccs3)C(C)C2)ncn1 (configuration not stated),-9,-3
COC(=O)c1ccc(CN(Cc2ccccc2)Cc2cccn2C)o1,-2,6
CC1(C(=O)NS(=O)(=O)c2ccc(Cl)cc2)CCN1C(=O)CC(c1ccccc1)c1ccccc1 (configuration not stated),6,5
Cc1ccc(-c2cc(C(F)(F)F)n3ncc(C(=O)Nc4ccc(Cl)cc4)c3n2)cc1,2,1
Fc1cc(F)c2nc(NCCCn3ccnc3)sc2c1,0,-2
COc1ccc2oc(=O)n(C3CCN(C(=O)c4cccc5c4-c4ccccc4C5=O)CC3)c2c1,-13,-9
N#Cc1ccc(COC(CN2CCN(C(=O)c3ccoc3)CC2)c2cccc(N3CCCC3)c2)cc1 (configuration not stated),-4,-15
Cc1ccc(Cc2nsc(N3CCC(CNS(=O)(=O)c4c(C)cc(C)cc4C)CC3)n2)cc1,4,0
Cc1cc(C(=O)Nc2cccc(C(=O)NC(C)(C)C)c2C)cc(=O)[nH]1,6,5
CCC1(C)N(O)C(C)C(c2ccccc2)=[N+]1[O-] (configuration not stated),-10,-14
Cc1cc(CNC(=O)c2ccc(Cn3ccccc3=O)o2)ccc1F,-25,-27
O=C(NCc1ccco1)c1coc(CN(Cc2ccc3c(c2)OCO3)Cc2ccc(Cl)cc2Cl)n1,14,40
Cc1cc(C)c2nc(N(Cc3cccnc3)C(=O)Cc3ccccc3)sc2c1,-12,-9

# Exported tab-delimited: entries from further up
molecule	NPYLR7 ag	NPYLR7 ag max-min
Cc1ccccc1Oc1cc(N2CCN(C(=O)c3cccs3)C(C)C2)ncn1 (configuration not stated)	-9	-3
COC(=O)c1ccc(CN(Cc2ccccc2)Cc2cccn2C)o1	-2	6
CC1(C(=O)NS(=O)(=O)c2ccc(Cl)cc2)CCN1C(=O)CC(c1ccccc1)c1ccccc1 (configuration not stated)	6	5
Cc1ccc(-c2cc(C(F)(F)F)n3ncc(C(=O)Nc4ccc(Cl)cc4)c3n2)cc1	2	1

# Remaining list, next part
SMILES,NPYLR7 ag,NPYLR7 ag max-min
O=C(Nc1ccc2c(c1)OCO2)c1ccc2sc([C@@H]3O[C@H](CO)[C@H](O)[C@H](O)[C@H]3O)nc2c1,12,5
COCCN(Cc1cccn1Cc1cccc(C(F)(F)F)c1)C(=O)Nc1ccc(C)c(C)c1,-2,7
CCCOc1nc2ccccc2nc1N1CCOCC1,3,-6
COc1cccc(CN(C)Cc2nc3ccc(Cl)cc3c(=O)[nH]2)c1,-11,-9
COc1ccc(S(=O)(=O)N(Cc2cccc(OS(=O)(=O)c3ccc(F)cc3)c2)Cc2ccco2)cc1,-3,2
O=C(c1ccco1)N1CCCC(OCc2ccccc2Cl)C1 (configuration not stated),-14,-6
COCCN=c1scc(-c2ccc(OC)cc2)n1N=Cc1cc(Br)c(O)c(OC)c1,-3,-2
CC(NC(=O)c1ccccc1N1CCC(NC(=O)c2ccc(F)cc2)CC1)c1ccccc1 (configuration not stated),-15,-13
CC1(C(=O)Nc2nc(-c3cc(F)ccc3F)cs2)Cc2ccccc2C(=O)O1 (configuration not stated),-3,-3
CCOC(=O)C1(Cc2ccccc2Cl)CCN(C(=O)c2ccsc2)CC1,6,8
CCOc1cc2c(cc1NS(=O)(=O)c1cccs1)OC(C)C2 (configuration not stated),-7,-6
CCCC(C)NC(=O)c1cc(S(=O)(=O)NC)ccc1Br (configuration not stated),2,2
CCOc1ccc(C(=O)Nc2c3c(nn2C(C)(C)C)CS(=O)C3)cc1OCC (configuration not stated),3,1
O=c1c2cnc3ncnn3c2ccn1-c1ccc(Cl)c(Cl)c1,5,8
O=C(C1CCN(Cc2nc(Cc3cccc(C(F)(F)F)c3)no2)CC1)N1CCCC1,6,-5
CN(CC(O)c1ccccc1)C(=O)c1ccc2oc(CCc3ccccc3)nc2c1 (configuration not stated),5,-8
COC(=O)c1ccc(N2C(=O)C3C4C=CC(C4)C3C2=O)cc1 (configuration not stated),7,4
O=C(Nc1ccccc1C1SCC(=O)N1c1cc(F)ccc1F)c1ccc(C(F)(F)F)cc1 (configuration not stated),15,21
CCOC(=O)Nc1nc(CC(=O)N2CCn3c2nc2ccccc23)cs1,-1,-3
OC1C[C@H]2CC[C@@H](C1)N2c1nc(-c2cccnc2)nc2c1CNC2 (some centres not stated),0,-2
CCSc1ncccc1C(=O)N1CCN(c2ncccc2NC(=O)c2ccc3c(c2)OCO3)CC1,-2,10
CCCCCCCCS(=O)(=O)NCc1nnc(SCc2cccc(C)c2)n1-c1cc(Cl)ccc1C,5,5
C=C1/C(=N\OC(=O)Nc2ccc(C)cc2)CC2CC1C2(C)C (configuration not stated),-7,-10
O=C1OC(c2ccc3c(c2)OCO3)=NC1=Cc1cc(Cl)c2c(c1)OCCO2,10,6
O=C(NCCN1CCCCC1)C(C1CCCC1)N1CCN(C(=O)c2ccccc2F)CC1 (configuration not stated),-5,3
SMILES,NPYLR7 ag,NPYLR7 ag max-min
Cc1cn2c3c(=O)n(C)c(=O)n(C)c3nc2n1CCCN1CCC(C(N)=O)CC1,3,4
O=C(NC1CCCc2ccccc21)c1cncn1-c1ccccc1 (configuration not stated),1,0
O=C(Cn1cnc(-c2ccccc2)cc1=O)NCC1CCCO1 (configuration not stated),11,1
O=S(=O)(NC1CCOc2ccccc21)N1CCCCCC1 (configuration not stated),2,1
CCOC(=O)C1CCCN(c2cc(Oc3ccccc3)ncn2)C1 (configuration not stated),7,7
O=C(CCn1cnc2ccccc2c1=O)NCc1cc(-c2ccc3c(c2)OCCO3)on1,6,6
CCOP(=O)(Cc1ccc(NC(=S)Nc2c(Cl)cccc2Cl)cc1)OCC,-11,-20
O=C(CNc1cncc(Br)c1)N1CCCCC1,-17&1,-20&1
CCOC(=O)CCNC(=O)N1CCC2(CCN(C)CC2)C1,4,1
Cc1c(C)c(C(=O)NCCc2ccccn2)n(Cc2cccc(C(F)(F)F)c2)c1C,25,23
CCCn1c(N)c(N(C)CCOc2ccc(Cl)cc2)c(=O)[nH]c1=O,-2,-2
CC(C)CNC(CC(=O)Nc1cc(Cl)ccc1O)C(=O)O (configuration not stated),1,2
CC1CN(C(CNC2CC(C)OC2=O)c2cccs2)CCO1 (configuration not stated),1,1
O=c1cc(-c2ccccc2)nc(Nc2nc3ccccc3o2)[nH]1,12,10
CN(CC(=O)Nc1c(C#N)cnn1-c1ccccc1)CC(=O)NC1CC1,8,7
Cc1nc(CN2CCN(Cc3csc(C)n3)CC2)cs1,0,-2
Cc1ccccc1CN1CCN(c2cc(Cl)ccc2C)C(=O)C1C (configuration not stated),-4,1
N#CCn1c2ccc(Br)cc2c2nc3ccccc3nc21,0,2
O=C(Cc1ccc(F)cc1)NCCCn1nc(-c2ccc(Cl)cc2)ccc1=O,-2,-3
CCn1cnnc1CNC(=O)N1CC(OCc2cccc3ccccc23)C1,6,4
O=C(CN1CCCCCC1=O)Nc1ccccc1Cl,3,2
COC(=O)c1cccc(CN2C(=O)C(C)ON=C2c2ccccc2F)c1 (configuration not stated),7,5
CCOC(=O)c1cnn(Cc2nc(-c3ccccc3C)oc2C)c1,0,0
Cc1cccc(C(C(=O)NCc2ccc(CN)cc2)N(C)C)c1 (configuration not stated),11,8
O=C(CSc1ccc(F)c(F)c1)NC(=O)Cc1ccccc1,0,-1
SMILES,NPYLR7 ag,NPYLR7 ag max-min
CCN(CC)c1ccc(CN(C(=O)NC(C)(C)C)C2CC2)c(OS(=O)(=O)c2ccc(NC(C)=O)cc2)c1,7,14
CSCCC(=O)N1CCC(n2c(-c3ccccc3)nc3ccc(F)cc32)CC1,0,-1
Cc1ccc2c(C)nc(N3CCCC(NCc4ccccc4)CC3)nc2c1 (configuration not stated),22,14
Cc1ccc(C2(C)NC(=O)N(Cc3ccc(Br)cc3)C2=O)o1 (configuration not stated),7,603
CC(=O)N1CCCC(C(=O)O)C1 (configuration not stated),8,9
CCCCC(=O)Nc1nc(-c2ccccc2)c(-c2nccn2C)s1,-4,-5
CC(=CC#N)n1nc(C)cc1N,-5,-12
CN(CCC(=O)N1CCCC(Nc2ccc(F)cc2)C1)S(C)(=O)=O (configuration not stated),0,-5
COC(=O)C1CCN(CC(O)COc2ccc(CN(C)Cc3nonc3C)cc2)CC1 (configuration not stated),-8,-6
CNc1nc(NC)nc(ON=C(C)C)n1,-3,-4

# Part of the list above in order of count of non-hydrogen atoms, rising:
SMILES,NPYLR7 ag,NPYLR7 ag max-min
CC(=CC#N)n1nc(C)cc1N,-5,-12
CNc1nc(NC)nc(ON=C(C)C)n1,-3,-4
Cc1ccc(C2(C)NC(=O)N(Cc3ccc(Br)cc3)C2=O)o1 (configuration not stated),7,603
CSCCC(=O)N1CCC(n2c(-c3ccccc3)nc3ccc(F)cc32)CC1,0,-1

# Record cards (already shown).
# CCN(CC)c1ccc(CN(C(=O)NC(C)(C)C)C2CC2)c(OS(=O)(=O)c2ccc(NC(C)=O)cc2)c1 in the list: NPYLR7 ag: 7; NPYLR7 ag max-min: 14
# Cc1onc(-c2c(F)cccc2Cl)c1C(=O)N1CCN(CCCOC(c2ccc(Cl)cc2)c2ccc(Cl)cc2)CC1 in the list: NPYLR7 ag: 24; NPYLR7 ag max-min: 14
# CCOC(=O)CCNC(=O)N1CCC2(CCN(C)CC2)C1 in the list: NPYLR7 ag: 4; NPYLR7 ag max-min: 1

# Quoted from the listing.
# CNc1nc(NC)nc(ON=C(C)C)n1 – NPYLR7 ag: -3
# CCN(CC)c1ccc(CN(C(=O)NC(C)(C)C)C2CC2)c(OS(=O)(=O)c2ccc(NC(C)=O)cc2)c1 – NPYLR7 ag: 7
# Cc1ccc(C2(C)NC(=O)N(Cc3ccc(Br)cc3)C2=O)o1 (configuration not stated) – NPYLR7 ag max-min: 603

# Screening results from PubChem BioAssay.

# These rows are one share of the data (hit frequency here may not be typical).
